# Compound activity (PubChem BioAssay)
# ClpP mod = qHTS Assay for Activators of ClpP | purified B. subtilis ClpP, FRET peptide cleavage, 20 min | Potency, µM (titrated, usually from 57.5 µM), for the others: at the highest dose activity change, negative = active | 1.9% of 340,000 active | AID 651965, 2013; active = well fitted falling curve with a large enough effect; inconclusive = small, poorly fitted or top-dose-only effect; inactive = no such curve, though single readings can be large or run the other way; note: potency is the fitted concentration of half-maximal effect; the source files actives as falling curves though it sought activators and does not explain the sign; nearly all actives have a fitted effect of over 65% in size; many hits overshoot -100%
# Target sequence (P80244 whole entry, looked up): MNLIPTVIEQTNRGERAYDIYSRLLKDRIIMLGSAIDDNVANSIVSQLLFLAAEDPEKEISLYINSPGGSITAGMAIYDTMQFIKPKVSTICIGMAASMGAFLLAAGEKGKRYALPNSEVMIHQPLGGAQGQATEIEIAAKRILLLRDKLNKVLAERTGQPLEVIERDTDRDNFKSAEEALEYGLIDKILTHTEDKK
#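 FRET quenching reversal measured ClpP activation: 10 microg/mL B. subtilis ClpP at pH 8 with the FRET-FV decapeptide, read at 430 nm after 320 nm excitation. The 20-min minus 0-min signal was scaled between DMSO/no-enzyme wells and ADEP (5.8 microM final).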
# TRPML1 ag = human mucolipin-1 channel agonism | Q9GZU1 | TRPML1-expressing cells, Ca2+ dye fluorescence, FDSS; host cell line not named in the record; reference of the full effect not given here | activation, % (no concentration beside the values) | 0.12% of 410,000 active | AID 624414; in the data active = activation above about 50%; inconclusive = about 30% to 50%; inactive = below about 30%; note: 0% is about no effect; the text of the record puts the active cut at 80%
# Target sequence (Q9GZU1 whole entry, looked up): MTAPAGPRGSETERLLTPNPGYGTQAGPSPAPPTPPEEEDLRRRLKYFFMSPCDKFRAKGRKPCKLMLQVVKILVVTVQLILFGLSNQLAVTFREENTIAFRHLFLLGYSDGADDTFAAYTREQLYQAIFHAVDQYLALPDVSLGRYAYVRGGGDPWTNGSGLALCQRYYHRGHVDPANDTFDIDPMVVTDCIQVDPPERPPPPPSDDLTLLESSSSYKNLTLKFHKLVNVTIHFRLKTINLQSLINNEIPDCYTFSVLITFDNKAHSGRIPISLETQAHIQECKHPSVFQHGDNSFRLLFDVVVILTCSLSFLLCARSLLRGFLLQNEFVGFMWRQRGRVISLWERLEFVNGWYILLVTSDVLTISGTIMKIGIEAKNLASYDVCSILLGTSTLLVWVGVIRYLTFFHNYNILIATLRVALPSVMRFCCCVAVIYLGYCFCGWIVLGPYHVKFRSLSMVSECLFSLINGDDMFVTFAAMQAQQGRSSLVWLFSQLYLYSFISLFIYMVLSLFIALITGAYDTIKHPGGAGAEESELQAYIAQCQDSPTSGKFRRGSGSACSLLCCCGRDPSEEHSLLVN
#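 Cells: TRPML1-DL, 1X Tet inducer, ~16 h at 37 degrees C/5% CO2. Dye: ABD Ca8 no-wash + quencher, 45-90 min RT. Read: 10 s baseline, compound add, 110 s agonist phase; 54-4 EC80 (4uM final), 110 s antagonist phase.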
# TRPML1 inh = human mucolipin-1 channel inhibition; Q9GZU1; TRPML1-inducible cells, Ca2+ dye fluorescence, FDSS; hits give low values; inhibition of EC80 agonist-evoked calcium signal; activity change, negative = inhibition, % (test concentration not listed); 0.02% of 390,000 active; in the data active means activity change below about -50%; inconclusive means about -30% to -50%; inactive means above about -30%;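 note: stimulus is agonist 54-4 at its EC80 concentration; % is set by controls: 0 for no effect and ±100 for the full control effect; compound concentration not given in the record; the text of the record puts the active cut at -80%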
#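 Tet-induced TRPML1-DL cells loaded with Ca8 no-wash calcium dye were read kinetically on FDSS. Compound addition was followed by EC80 agonist 54-4 (4 uM final); inhibition was read over 110 s.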
# gsp antagonist = antagonists of gsp mutant (McCune-Albright syndrome); gsp-mutant cells, cAMP HTRF, 30 min; control for the full effect not named in the record; Potency, µM (doses to about 76.9 µM), inactives show at the highest dose activity change, negative = inhibition, most hits filed as inhibitors; 0.4% of 340,000 active; active = falling curve of any shape with a large fitted effect; inconclusive = falling curve, mostly with a smaller effect; inactive = flat or rising curve; cell line not stated here;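 note: intracellular cAMP measured with PDE inhibitor Ro 20-1724 present during compound exposure; potency is the fitted concentration of half-maximal effect; % is set by controls: 0 for no effect and ±100 for the full control effect; nearly all actives have a fitted effect of over 65% in size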
#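 G418-selected cells were plated in DMEM/10% FBS for 16-24 h at 37C, then treated with compounds plus the PDE inhibitor […] (300 uM solution added) for 30 min at 37C. Intracellular cAMP was measured by HTRF after 30 min lysis at room temperature.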
# Menin-MLL FL inh = displaces fluorescein MLL peptide from human menin. FP activity change, % at 61.4 µM. Fluorescence polarization, fluorescein-MLL peptide displacement from menin. 290,000 tested, under 10 active; inconclusive = falling polarisation curve, or a change in total fluorescence; inactive = total fluorescence flat and polarisation flat or rising; no compound was filed as active; the % refers to the polarisation; negative = inhibition;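 note: % of control where 0% means no effect; inhibitors lower the polarisation; unlabelled MLL peptide was the positive control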
# gsp ag = agonists of gsp mutant (McCune-Albright syndrome) | Potency, µM (top dose mostly 76.9 µM), for inactives: at the top dose activation (cAMP increase), actives largely listed as activators | gsp mutant cells, cAMP HTRF, 30 min; control for the full effect not named in the record | 0.13% of 340,000 active; active = well fitted activation curve with a large enough effect; inconclusive = small, poorly fitted or top-dose-only effect, or another doubt; inactive = no such curve, though single readings can be large or run the other way; cell line not stated here;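 note: phosphodiesterase inhibitor Ro 20-1724 added with compounds to block cAMP breakdown; potency is the fitted concentration of half-maximal effect; nearly all actives have a fitted effect of over 60% in size; about a fifth of the inactives were tested at one dose only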
#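 Cells stably selected in G418 were plated at 2000/well, grown 16-24 hr, then given compounds in DMSO with the PDE inhibitor […] (300 uM solution added) for 30 min at 37C; cAMP was read by HTRF.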
# * hit, by the source's call; ? = inconclusive; nt = no result given; [ ] = another dose, or the depositor's remark. No enrichment for hits; 2.1% or so of the library scored in one or more.
SMILES,ClpP mod,TRPML1 ag,TRPML1 inh,gsp antagonist,Menin-MLL FL inh,gsp ag
Cc1c2ccncc2cc2c1[nH]c1ccccc12,nt,3.4,-2,-8%,nt,-1%
CCC(C)[C@H](NC(=O)Nc1cccc(Br)c1)C(=O)OC (stereo partly specified),-7.1%,-0.7,3,8%,6.9,-13%
Cc1cccc(NC(=O)CCN2CCC(C)CC2)c1,-2.1%,0.7,12,4%,0.1,1%[15.4 µM]
O=C(CCNc1n[nH]c(=O)[nH]c1=O)N/N=C/c1ccc(C(F)(F)F)cc1,nt,-0.2,-9,2%,-0.8,-1%
CCOCCCNC(=O)C1CCN(c2cc(C)nc3c(-c4ccc(OC)c(OC)c4)c(C)nn23)CC1,-8.6%,-0.4,-1,-4%,1.4,-38%[inhibitor]
COc1cccc(C(=O)NCC2CCCN(C(=O)Cc3cccc(C)c3)C2)c1OC (stereo unspecified),-2.9%,-1.1,-2,nt,nt,-93%[inhibitor]
COC1CCCN(C(=O)c2cccc(OC3CCN(S(C)(=O)=O)CC3)c2)C1 (stereo unspecified),0.5%,-0.4,-8,4%,0.8,?
Cc1nnsc1C(=O)NNc1ccc(C(C)(C)C)cc1,nt,0.3,21,4%,5.4,?
Cc1cc(C)c(C(=O)N2CCCC(CNS(=O)(=O)N(C)C)C2)o1 (stereo unspecified),0.1%,-1.8,3,-9%,-3.2,15%
Cc1cccc(NC(=O)CNC(=O)CSc2nnc(C(F)(F)F)n2C)c1C,0.5%,-0.7,-10,0%,nt,21%

# Profiles from above. Order of screens: ClpP mod | TRPML1 ag | TRPML1 inh | gsp antagonist | Menin-MLL FL inh | gsp ag
# COC1CCCN(C(=O)c2cccc(OC3CCN(S(C)(=O)=O)CC3)c2)C1 (stereo unspecified) across the screens: 0.5% | -0.4 | -8 | 4% | 0.8 | ?
# CCOCCCNC(=O)C1CCN(c2cc(C)nc3c(-c4ccc(OC)c(OC)c4)c(C)nn23)CC1 across the screens: -8.6% | -0.4 | -1 | -4% | 1.4 | -38%[inhibitor]
# COc1cccc(C(=O)NCC2CCCN(C(=O)Cc3cccc(C)c3)C2)c1OC (stereo unspecified) across the screens: -2.9% | -1.1 | -2 | nt | nt | -93%[inhibitor]

# The results go on.
SMILES,ClpP mod,TRPML1 ag,TRPML1 inh,gsp antagonist,Menin-MLL FL inh,gsp ag
COc1cccc(OC)c1C(=O)NNS(=O)(=O)c1ccc2ccccc2c1,2.0%,-0.7,11,-5%,nt,26%
COCc1cc(=O)[nH]c(-c2csc(C)n2)n1,-1.4%,0.4,-6,6%,0.3,7%[15.4 µM]
COc1cc(C2C(C(=O)c3ccc(C)o3)=C(O)C(=O)N2CCCn2ccnc2)cc(OC)c1OC (stereo unspecified),25µM*,0.5,-2,11%,-1.6,6%[15.4 µM]
Cc1ccc(NC(=O)c2cc3ccccc3oc2=N)cc1,-0.6%,1.3,-25,15%,3.1,0%
COCCNC(=O)C1(C)CCCN(Cc2ccc(OCc3ccccc3)cc2)C1 (stereo unspecified),2.5%,-0.5,10,nt,nt,nt
CCOC(=O)COc1ccc(/C=C(\C#N)c2nc3ccc(C)cc3[nH]2)cc1OC,12%,0.7,-20,nt,nt,nt
O=C(Nc1cc(S(=O)(=O)N2CCOCC2)ccc1N1CCCCC1)c1ccccc1Br,0.8%,3.0,17,-19%,nt,25%[15.4 µM]
Cc1ccc(C(=O)Nc2ccccc2C(=O)Nc2ccccn2)cc1Cl,0.5%,1.9,-8,-37%,0.8,0%[15.4 µM]
CN(C)CCCN(C(=O)c1ccc(S(=O)(=O)N2CCOCC2)cc1)c1nc2ccc(F)cc2s1,0.8%,1.5,-23,-3%,nt,20%[15.4 µM]
COc1ccc(C(=O)N2CCN(S(=O)(=O)c3ccc(F)cc3)CC2)cc1OC,-0.1%,0.0,-14,0%,4.8,-56%[inhibitor]
N#Cc1c(N)nc(N2CCCC2)c(C#N)c1-c1ccc(Cl)cc1,174%,-0.3,-3,46%[activator],2.5,?
CC(=O)N1CCCC(C)(C(=O)Nc2ccc3nc(C)ccc3c2)C1 (stereo unspecified),-15%,0.0,6,nt,nt,nt
COc1ccc(CCNc2nc3c(c(=O)n(C)c(=O)n3C)n2Cc2ccccc2Cl)cc1OC,0.7%,-0.7,-16,nt,nt,nt
Cc1cccc(-n2c(Cc3cc(=O)[nH]c(=O)[nH]3)nnc2SCC(=O)N2CCCCC2)c1,1.9%,-0.1,12,2%,-1.0,-40%[inhibitor]
CC1CC=C(O)C12OCC(C)(C)CO2 (stereo unspecified),-7.7%,0.0,24,12%,nt,8%
O=C(c1ccc(Cl)cc1)N(c1ccccn1)C1CCCCC1,8.2%,-1.7,-17,-23%,-2.5,2%[15.4 µM]
CC1(c2ccccc2)NC(=O)N(CC(=O)Nc2ccc3c(c2)CCC3)C1=O (stereo unspecified),0.9%,-0.8,-6,-1%,nt,21%
CCOC(=O)C1CCN(C(=O)C2(NC(=O)Nc3ccc(F)cc3F)CCCCC2)CC1,nt,-0.6,28,nt,-1.9,1%[15.4 µM]
CC(C)n1nc(C(=O)Oc2ccc(Cl)cc2)c2ccccc2c1=O,18µM*,-0.3,-6,-19%,-0.7,?
CCCOc1ccc(NC2=CC(=O)CC(C)(C)C2)cc1,-0.1%,0.2,23,7%,4.6,-28%
O=C(NCc1ccco1)C1CCCN(S(=O)(=O)Cc2ccccc2)C1 (stereo unspecified),-1.2%,0.5,19,3%,0.6,-2%
CCN1C(=O)[C@H]2[C@H]3CN=C(SCc4ccc(Cl)cc4)N3[C@@](Cc3ccccc3)(C(=O)OC)[C@H]2C1=O,0.7%,1.0,38,-28%,nt,nt
Cc1ccccc1Cn1c(=O)n(CCc2ccccc2)c(=O)c2sc3ccccc3c21,-25%,-0.2,-8,nt,nt,nt
O=C(CCS(=O)(=O)c1ccc(Br)cc1)NC1CCCCCC1,2.1%,2.9,15,6%,2.3,-1%
Cc1[nH]nc(SCC(=O)NCc2ccc(Cl)cc2)c1[N+](=O)[O-],8.8%,-0.3,-13,?,-2.4,2%
O=C(Cc1c[nH]c2ccccc12)NC1(C(=O)NC2CCCC2)CCCCC1,nt,0.3,27,4%,-2.1,-15%[15.4 µM]
COc1cc(OC)c(NC(=O)CCc2nc(-c3cccs3)no2)cc1Cl,1.8%,-1.2,-9,-14%,1.8,0%
O=S(=O)(NCc1ccncc1)c1ccccc1,0.1%,0.4,3,-5%,4.3,1%
N=c1c(C(=O)NCCc2ccccc2)cc2c(=O)n3ccccc3nc2n1CC1CCCO1 (stereo unspecified),3.8%,3.4,17,-8%,-1.8,-2%
O=C(CN(c1ccc2c(c1)OCCO2)S(=O)(=O)c1ccccc1)Nc1ccc2c(c1)OCO2,0.7%,-0.4,-6,-14%,2.8,-79%[inhibitor]
Cc1ccnc(Cc2ccccc2)n1,nt,0.1,-6,5%,-0.6,-8%
Cc1cc(C)cc(N2C(=O)CC(Cn3nc(C)cc3C)C2=O)c1 (stereo unspecified),nt,7.0,16,6%,4.5,-8%
CCN1C(=O)c2cccc3c(NC(=O)c4ccc5c(c4)OCCO5)ccc1c23,2.4%,-0.3,1,0%,?,-29%
CCc1ccc(S(=O)(=O)Nc2cccc(-c3ccc(N4CCC(C)CC4)nn3)c2)s1,-8.9%,1.1,37,nt,nt,nt
O=C(COc1ccc2c(-c3ccccc3)cc(=O)oc2c1)NCCCN1CCOCC1,0.9%,-0.3,-9,-2%,nt,?
Cc1c(Cl)cccc1NC(=O)c1oc2ccc(S(=O)(=O)N3CCCCCC3)cc2c1C,18%,-0.7,-11,nt,nt,nt
COc1ccc(NC(=O)COC(=O)c2ccc3ccccc3n2)cc1OC,14%,1.9,18,5%,nt,-25%
CC(C)Nc1nc2c(S(=O)(=O)c3cccc(Cl)c3)nnn2c2ccsc12,-6.7%,0.5,-2,nt,nt,nt
COc1cccc(CNCc2cccnc2)c1OCc1ccccc1,nt,0.0,5,-29%,2.5,-20%[15.4 µM]
Nc1cccc(Oc2ccc3c(c2)C(=O)N(CC2CCCO2)C3=O)c1 (stereo unspecified),2.4%,-0.9,30,-12%,1.5,7%

# The list goes on; the last 3 above are carried over.
SMILES,ClpP mod,TRPML1 ag,TRPML1 inh,gsp antagonist,Menin-MLL FL inh,gsp ag
CC(C)Nc1nc2c(S(=O)(=O)c3cccc(Cl)c3)nnn2c2ccsc12,-6.7%,0.5,-2,nt,nt,nt
COc1cccc(CNCc2cccnc2)c1OCc1ccccc1,nt,0.0,5,-29%,2.5,-20%[15.4 µM]
Nc1cccc(Oc2ccc3c(c2)C(=O)N(CC2CCCO2)C3=O)c1 (stereo unspecified),2.4%,-0.9,30,-12%,1.5,7%
COc1cc(C(=O)NCc2nnc(SCC(=O)Nc3cccc(C)c3)o2)cc(OC)c1OC,2.3%,-0.7,0,8%,0.7,-11%
COC(=O)Cc1cc(=O)[nH]c(/N=C(\N)Nc2cccc(C)c2)n1,nt,-0.5,17,nt,2.8,-1%[15.4 µM]
COc1ccc(-c2oc3ncn4nc(COc5ccc(C)cc5)nc4c3c2-c2ccc(OC)cc2)cc1,-26%,-0.7,-11,nt,nt,nt
Cc1ccc(-n2c(SCC(=O)c3ccccc3)nc3c([nH]c4ccccc43)c2=O)cc1,-3.2%,1.3,14,nt,nt,nt
CCCC(C)NC(=O)COC(=O)c1cccc(NS(C)(=O)=O)c1 (stereo unspecified),-0.3%,0.9,6,24%,3.6,-17%
Cc1cccc2c(C(=O)O)c3cccc(C)c3nc12,49%,-0.2,-1,5%,nt,-3%[15.4 µM]
O=C(CSc1ccc2nnc(-c3cccnc3)n2n1)Nc1ccccc1,-3.0%,-0.6,0,9%,nt,?
COc1ccccc1N=Nc1ccc(O)c2ncccc12,-0.9%,1.9,-19,-6%,-2.1,1%
N#Cc1c(-c2cccs2)nc(SCC(=O)c2ccc(Br)cc2)[nH]c1=O,nt,4.9,8,5%,?,?
CN(CCC1CCCCO1)C(=O)CCc1nnc(Cc2c[nH]c3ccccc23)o1 (stereo unspecified),-0.4%,0.1,-5,3%,nt,?
CCC1CCCCN1S(=O)(=O)c1ccc(NC(=O)c2cccnc2)cc1 (stereo unspecified),1.0%,1.6,-2,-11%,nt,-10%
S=C(N/N=C/c1ccc(Cl)cc1)N1CCOCC1,-9.2%,1.0,14,6%,1.9,7%
O=C(C1COc2ccccc2O1)N1CCCCC1 (stereo unspecified),-0.5%,0.4,6,13%,nt,1%
OCc1cc(CO)c(O)c(CCc2ccccc2)n1,?,-0.6,0,4%,4.2,-24%
CCOC(=O)CNS(=O)(=O)c1ccc(C(=O)O)cc1,0.2%,0.0,19,2%,4.7,-23%
O=C1CCC(c2ccccc2)(C2CCN(Cc3ccccc3)CC2)C(=O)N1 (stereo unspecified),-0.5%,0.9,-5,-8%,-3.8,nt
